T cruzi inh = inhibitors of intracellular T. cruzi growth, primary screen, luminescence, NIH3T3 host cells | AID 1885, 2009 | inhibition, % (test concentration not listed) | T. cruzi beta-gal in NIH3T3, 90 h | hit rate 1.4% among 300,000;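 active = mean inhibition across valid replicates above about 55%, limit read from the data; inconclusive = mean below that limit but half or more replicates reach it; inactive = mean below it, under half of replicates reach it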;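 note: signal also drops with host cell toxicity which is not excluded here; 0% = plate median of DMSO wells and 100% = zero luminescence signal; higher percent means less beta-gal luminescence so fewer parasites; stock transfer was 50 nL into about 50 µL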
Ecoli rRNA inh = reduced GFP signal of wild-type E. coli, primary screen, bacterial rRNA inhibitor project, GFP/RFP fluorescence, OD600, single point. E. coli WT GFP vs humanized-ribosome RFP mutants, 24 h; active compounds read low; DMSO median 0, no signal -100. GFP signal change (wild-type ribosome), % (concentration not given with the values). hit rate 1.6% among 350,000. AID 720706, 2013;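 active = significant combined selectivity score with lowered wild-type GFP, culture density cut under 30%, mutant RFP and density less affected; inactive = any of these conditions unmet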; note: one replicate is shown; some compounds called inactive have numbers as strong as hits
Calb FLC = C. albicans growth inhibition with fluconazole, primary screen, CaCi-2 strain, Alamar Blue fluorescence; AID 1979, 2009; hit rate 0.57% among 300,000; growth inhibition, % (test concentration not listed); C. albicans CaCi-2 (fluconazole-resistant clinical isolate) + fluconazole, 48 h;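 active = most replicates above 75%; inconclusive = exactly half above 75%; inactive = most below 75%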;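 note: all wells also contain fluconazole at 8 µg/ml as a sub-toxic cotreatment; 0% = median of DMSO wells and 100% = median of geldanamycin control wells; wells of about 8 µL received 7.5 nL stock; the first replicate is given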
RanGTP-Imp inh = inhibitors of RanGTP-importin-beta interaction, primary screen, biochemical, FRET, CFP-Ran, YFP-importin-beta, homogeneous; inhibition, % (concentration not given with the values); Ran GTPase (GTP-bound) - importin-beta complex; cell-free CFP-Ran/YFP-importin-beta FRET ratio; AID 2216, 2009; hit rate 1.1% among 300,000;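 active = most replicates above 15%; inconclusive = exactly half above 15%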;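 note: 0% = DMSO wells and 100% = Ran loaded with GDP instead of GTP; wells of about 40 µL received 100 nL stock; the first replicate is given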
Beta cell apopt = inhibitors of cytokine-induced beta cell apoptosis, primary screen, luminescence | AID 435005, 2010 | INS-1E cytokine-induced death, ATP luminescence, 48 h; percent of positive-control rescue, neutral wells zero | protection from apoptosis, % (no concentration beside the values) | hit rate 0.8% among 300,000;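 active = all replicates at 75% or more, or half of them and the mean; inconclusive = half reach 75% but not the mean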;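 note: 0% = cytokine-treated negative control wells and 100% = positive control rescue; higher means more ATP so stronger rescue from cytokine killing; wells of about 40 µL received 100 nL stock; the first replicate is given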
MLL AF4-AF9 inh = inhibitors of AF4 peptide binding to AF9, primary screen, biochemical, AlphaScreen, biotin-AF4 peptide, FLAG-AF9, single point; Protein AF-9 (Homo sapiens), P42568; inhibition, % at 10 µM; hit rate 0.47% among 350,000;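 active = every replicate reaching a set inhibition limit, whatever the replicate mean, cut at about 25% in these data; inconclusive = mean inhibition reaches that limit but some replicates miss it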;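 note: 0% = plate neutral control median and 100% = total signal loss; the record names both 10 and 1 µM as test concentration; the first replicate is given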
Target sequence (P42568 whole entry, looked up): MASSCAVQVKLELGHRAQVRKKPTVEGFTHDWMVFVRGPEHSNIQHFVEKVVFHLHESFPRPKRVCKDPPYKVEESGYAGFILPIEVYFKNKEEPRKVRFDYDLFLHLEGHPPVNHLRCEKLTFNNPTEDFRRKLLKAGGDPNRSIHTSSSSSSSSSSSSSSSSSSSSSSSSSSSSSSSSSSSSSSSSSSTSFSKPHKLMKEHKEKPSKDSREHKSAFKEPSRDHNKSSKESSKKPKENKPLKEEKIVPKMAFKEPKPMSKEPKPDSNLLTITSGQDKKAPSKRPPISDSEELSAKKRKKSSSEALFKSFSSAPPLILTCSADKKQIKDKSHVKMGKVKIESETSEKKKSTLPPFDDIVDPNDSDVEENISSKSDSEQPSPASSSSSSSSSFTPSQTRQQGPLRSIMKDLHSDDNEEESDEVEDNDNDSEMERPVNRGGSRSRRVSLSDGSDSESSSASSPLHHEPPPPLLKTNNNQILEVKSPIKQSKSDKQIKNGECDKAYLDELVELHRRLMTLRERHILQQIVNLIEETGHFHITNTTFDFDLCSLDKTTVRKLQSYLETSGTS
Bfl-1 A1 inh = caspase 3/7 activation in MEF A1-2A-BIM cells, primary screen, A1 inhibitor project, cell-based, luminescence, HTS; Caspase-Glo 3/7 luminescence, 3 h; percent of clofoctol response, vehicle zero; caspase activation, % (test concentration not listed); hit rate 0.066% among 330,000; AID 2462, 2010;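 active = over half of replicate activation scores above 10%, or exactly half above 10 with the replicate mean above 10; inconclusive = replicate mean below 10 yet half the replicates above 10; inactive = over half of replicates below 10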;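 note: wells of about 30 µL received 50 nL stock; many hits fall short of the cut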
Vif TR-FRET = inhibitors of Vif binding to APOBEC3G peptide, primary screen, biochemical, TR-FRET, GST-Vif 1-94, biotin-A3G peptide, dose response retest (AID 1117319); Virion infectivity factor (Human immunodeficiency virus type 1 group M subtype B (isolate …; hit rate 0.57% among 260,000; TR-FRET GST-Vif / biotin-A3G peptide binding; higher % means a stronger effect; test concentration not given here; strong numbers were not always called active; inhibition, %, or IC50 in µM where a hit was titrated;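 active = above the screen mean plus three standard deviations and confirmed in dose response; inconclusive = results disagree or hit not tested in dose response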;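 note: Vif residues 1-94 fused to GST binding biotinylated APOBEC3G peptide 110-148; 0% = full assay without inhibitor and 100% = GST in place of GST-Vif; retest series ran down from 100 µM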
Ecoli rRNA inh OD600 = also measured in Ecoli rRNA inh; calls as there; OD600 change, %; measured here: OD600 growth;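 optical density of the mix in the first replicate; 0 = DMSO median and -100 = no signal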
Ecoli rRNA inh RFP = recorded beside Ecoli rRNA inh, whose call it bears; RFP signal change, %; measured here: RFP humanized mutant strains;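 first replicate; 0 = DMSO median and -100 = no signal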
* hit, by the source's call.

Screening Cc1ccc(CN(C)C(=O)c2ccc(NS(=O)(=O)c3ccc4[nH]c(=O)[nH]c4c3)cc2)cc1 returned T cruzi inh -3, Ecoli rRNA inh 0, Calb FLC 0, RanGTP-Imp inh 7.4, MLL AF4-AF9 inh 7.7, Bfl-1 A1 inh -0.1, Vif TR-FRET 7%, Ecoli rRNA inh OD600 -1 and Ecoli rRNA inh RFP 1.7.
For Cc1cc(C(F)(F)F)cc(NNC(=O)NC(=O)c2ccccc2Cl)n1 the results were T cruzi inh -1, Ecoli rRNA inh 5, Calb FLC 3, RanGTP-Imp inh 0.8, Beta cell apopt 0, MLL AF4-AF9 inh -5.0, Bfl-1 A1 inh -0.8, Vif TR-FRET -11%, Ecoli rRNA inh OD600 4 and Ecoli rRNA inh RFP 2.2.
For CCCS(=O)(=O)c1c(S(=O)(=O)CCC)c2cnccn2c1C(=O)c1ccc(F)cc1 the results were T cruzi inh -10, Ecoli rRNA inh 1, Calb FLC -8, RanGTP-Imp inh inconclusive, MLL AF4-AF9 inh -31, Vif TR-FRET 19%, Ecoli rRNA inh OD600 -4 and Ecoli rRNA inh RFP -7.6.
O=C1c2ccccc2C(=O)c2c([N+](=O)[O-])ccc(O)c21 was read as Ecoli rRNA inh 9, MLL AF4-AF9 inh -4.0, Bfl-1 A1 inh -2.4, Vif TR-FRET -11%, Ecoli rRNA inh OD600 3 and Ecoli rRNA inh RFP 39.
CN1CCNC(=O)C1CC(=O)N1CC=C(c2ccc(F)cc2)CC1 (centres undefined) was read as T cruzi inh -6, Ecoli rRNA inh 24, Calb FLC 6, RanGTP-Imp inh 5.3, Beta cell apopt 1, MLL AF4-AF9 inh 0.1, Bfl-1 A1 inh 0.3, Vif TR-FRET 15%, Ecoli rRNA inh OD600 9 and Ecoli rRNA inh RFP 1.8.
Screening CNC(=S)NNC(=O)Cc1ccccc1 returned T cruzi inh -23, Calb FLC -3, RanGTP-Imp inh 4.0, Beta cell apopt -1, Bfl-1 A1 inh -0.6 and Vif TR-FRET -3%.
Screening Cc1nc(N)nc(OCC(F)(F)C(F)F)c1Br returned T cruzi inh 9, Calb FLC -13, RanGTP-Imp inh 0.7, Beta cell apopt -2, Bfl-1 A1 inh -0.2 and Vif TR-FRET 2%.
Cc1cc(C)n(CCNC(=O)C2CCC(=O)N(CC3CCCCC3)C2)n1 (centres undefined) was read as T cruzi inh -7, Ecoli rRNA inh 7, Calb FLC -11, RanGTP-Imp inh -0.2, Beta cell apopt -5, MLL AF4-AF9 inh 1.3, Bfl-1 A1 inh -0.7, Ecoli rRNA inh OD600 5 and Ecoli rRNA inh RFP 0.6.
COc1ccc(Cl)cc1C(=O)NC(=S)Nc1nc(C)cc(C)n1 was read as T cruzi inh -14, Calb FLC 1, RanGTP-Imp inh 6.8, Beta cell apopt -3, MLL AF4-AF9 inh -0.8 and Bfl-1 A1 inh 0.2.
`COc1ccc(/C(C)=N\NS(=O)(=O)c2ccccc2)cc1OC` gave T cruzi inh 4, Ecoli rRNA inh 16, Calb FLC -5, RanGTP-Imp inh 3.6, Beta cell apopt -9, MLL AF4-AF9 inh -0.1, Bfl-1 A1 inh 0.6, Vif TR-FRET -4%, Ecoli rRNA inh OD600 9 and Ecoli rRNA inh RFP -2.6.
For COc1nccnc1NS(=O)(=O)c1ccc(NC(=S)NC(=O)c2ccc(F)c(F)c2)cc1 the results were T cruzi inh 4, Ecoli rRNA inh 4, Calb FLC -3, RanGTP-Imp inh 1.1, Beta cell apopt 2, MLL AF4-AF9 inh 2.5, Bfl-1 A1 inh 0.5, Vif TR-FRET 22%, Ecoli rRNA inh OD600 -1 and Ecoli rRNA inh RFP -12.
For O=C(Nc1ccc2nc3n(c(=O)c2c1)CCCCC3)c1ccccc1[N+](=O)[O-] the results were T cruzi inh -3, Ecoli rRNA inh -15, Calb FLC -1, RanGTP-Imp inh 1.8, Beta cell apopt -4, MLL AF4-AF9 inh 2.4, Bfl-1 A1 inh -0.9, Ecoli rRNA inh OD600 -10 and Ecoli rRNA inh RFP -3.1.
`O=C(O)c1ccc(C2Nc3ccccc3C(=O)N2Cc2ccccc2)cc1` (centres undefined) gave T cruzi inh -33, Ecoli rRNA inh 5, Calb FLC -1, RanGTP-Imp inh 5.4, Beta cell apopt 2, MLL AF4-AF9 inh -1.8, Bfl-1 A1 inh -0.1, Ecoli rRNA inh OD600 0 and Ecoli rRNA inh RFP 0.3.
Screening Cc1nc2sc(C)c(C)c2c(=O)[nH]1 returned T cruzi inh 2, Calb FLC -7, RanGTP-Imp inh -1.8, Beta cell apopt -2, Bfl-1 A1 inh 0.5 and Vif TR-FRET 2%.
For CN(C(=O)COC(=O)c1ccc(Cl)nc1)C1CCS(=O)(=O)C1 (centres undefined) the results were T cruzi inh 7, Ecoli rRNA inh 19, Calb FLC 1, RanGTP-Imp inh -0.7, Beta cell apopt -5, MLL AF4-AF9 inh 1.2, Bfl-1 A1 inh 0.6, Vif TR-FRET 0%, Ecoli rRNA inh OD600 9 and Ecoli rRNA inh RFP 4.9.
O=C(CCCC(=O)N/N=C\c1ccccn1)N/N=C\c1ccccn1 was read as T cruzi inh -10, Calb FLC -7, RanGTP-Imp inh 4.9, Beta cell apopt -6, MLL AF4-AF9 inh 1.9, Bfl-1 A1 inh 0.9 and Vif TR-FRET -6%.
For Cc1cc2c(cc1S(=O)(=O)N(C)c1ccccc1)n(C)c(=O)n2C the results were T cruzi inh -12, Ecoli rRNA inh 2, Calb FLC -5, RanGTP-Imp inh 1.7, Beta cell apopt -3, MLL AF4-AF9 inh 0.9, Bfl-1 A1 inh 0.6, Ecoli rRNA inh OD600 3 and Ecoli rRNA inh RFP -6.9.
S=c1[nH]nc(C2CCCCC2)n1/N=C/c1ccco1 was read as T cruzi inh -1, Calb FLC 10, RanGTP-Imp inh -3.0, Beta cell apopt 0 and Bfl-1 A1 inh -0.7.
For Cc1ccc2c(Cl)cc(Cl)c(OCC(=O)N3CCCC3)c2n1 the results were T cruzi inh -5, Ecoli rRNA inh 6, Calb FLC 3, RanGTP-Imp inh -1.3, Beta cell apopt -3, MLL AF4-AF9 inh -2.8, Bfl-1 A1 inh 0.2, Vif TR-FRET 13%, Ecoli rRNA inh OD600 13 and Ecoli rRNA inh RFP -0.9.
For O=C(CCn1cnc2ccccc21)N/N=C/C=C/c1ccccc1 the results were T cruzi inh -3, Calb FLC -1, RanGTP-Imp inh 5.8, Beta cell apopt -4, MLL AF4-AF9 inh 6.2, Bfl-1 A1 inh 1.4 and Vif TR-FRET -4%.
Screening Cc1noc(-c2ccccc2)c1NC(=O)Nc1ccc(Cl)cc1 returned T cruzi inh 12, Calb FLC -4, RanGTP-Imp inh 1.6, MLL AF4-AF9 inh 0.7, Bfl-1 A1 inh 0.8 and Vif TR-FRET -9%.
CN1CCN(c2ccc(NC(=O)COc3cccc4ccccc34)cc2)CC1 was read as T cruzi inh 29, Ecoli rRNA inh -7, Calb FLC -4, RanGTP-Imp inh 5.0, Beta cell apopt 2, MLL AF4-AF9 inh 7.3, Bfl-1 A1 inh -0.7, Ecoli rRNA inh OD600 -2 and Ecoli rRNA inh RFP 5.9.
Screening COC(=O)c1ccc(NC(=O)Cn2nnc3ccccc32)cc1 returned T cruzi inh 0, Calb FLC 0, RanGTP-Imp inh -1.1, Beta cell apopt 1, Bfl-1 A1 inh 0.2 and Vif TR-FRET 1%.
Screening Oc1ccc(N=Nc2ccccc2)o1 returned T cruzi inh -6, Ecoli rRNA inh 13, Calb FLC 0, RanGTP-Imp inh -0.6, Beta cell apopt -44, MLL AF4-AF9 inh -0.7, Bfl-1 A1 inh 2.8, Vif TR-FRET -16%, Ecoli rRNA inh OD600 23 and Ecoli rRNA inh RFP 2.0.
`CCN(C(=O)COc1ccc(C)cc1OC)c1cccc2ccccc12` gave Ecoli rRNA inh -26, Beta cell apopt 2, MLL AF4-AF9 inh 5.9, Bfl-1 A1 inh 0.3, Vif TR-FRET -4%, Ecoli rRNA inh OD600 -48 and Ecoli rRNA inh RFP -3.4.
For COc1ccc(C(=O)NCC(c2ccco2)N2CCc3ccccc32)cc1OC (centres undefined) the results were T cruzi inh 6, Ecoli rRNA inh -8, Calb FLC 0, RanGTP-Imp inh -0.4, Beta cell apopt 4, MLL AF4-AF9 inh 11, Bfl-1 A1 inh 0.7, Vif TR-FRET 13%, Ecoli rRNA inh OD600 -12 and Ecoli rRNA inh RFP 3.1.
`COCCn1c(C)cc2c(c1=O)C(c1ccccc1F)C(C#N)=C(N)O2` (centres undefined) gave T cruzi inh 0, Calb FLC 6, RanGTP-Imp inh 63*, Beta cell apopt -4, Bfl-1 A1 inh 0.0 and Vif TR-FRET 5%.
For CCN(CC(=O)Nc1ccc(OC)cc1)C(=O)Cc1ccc(OC)c(S(=O)(=O)N2CCOCC2)c1 the results were Ecoli rRNA inh 19, Beta cell apopt 0, MLL AF4-AF9 inh 3.3, Bfl-1 A1 inh 2.2, Vif TR-FRET -1%, Ecoli rRNA inh OD600 10 and Ecoli rRNA inh RFP 4.1.
For NS(=O)(=O)c1ccc(NC(=O)c2cc(-c3cc(Cl)ccc3O)n[nH]2)cc1 the results were T cruzi inh -7, Ecoli rRNA inh -9, Calb FLC 0, RanGTP-Imp inh 4.5, Beta cell apopt 11, MLL AF4-AF9 inh 0.1, Bfl-1 A1 inh 0.6, Vif TR-FRET -2%, Ecoli rRNA inh OD600 -3 and Ecoli rRNA inh RFP -0.6.
CC(=O)Nc1cccc(OCC(O)Cn2c(C)nc3ccccc32)c1 (centres undefined) was read as T cruzi inh -16, Calb FLC 0, RanGTP-Imp inh -1.2, Beta cell apopt -3, Bfl-1 A1 inh 0.7 and Vif TR-FRET 2%.
CC(C)CN1C(=O)C(=Nc2cccnc2)c2ccccc21 was read as T cruzi inh 17, Ecoli rRNA inh 18, Calb FLC -33, RanGTP-Imp inh 0.6, Beta cell apopt 2, MLL AF4-AF9 inh 0.1, Bfl-1 A1 inh 1.2, Vif TR-FRET 3%, Ecoli rRNA inh OD600 -1 and Ecoli rRNA inh RFP 11.
`COc1ccc(Cl)cc1C(=O)NNC(=O)c1cccs1` gave Ecoli rRNA inh 12, Beta cell apopt -4, MLL AF4-AF9 inh -3.1, Bfl-1 A1 inh -1.1, Vif TR-FRET -6%, Ecoli rRNA inh OD600 13 and Ecoli rRNA inh RFP 2.5.
Screening CC1CC(NC(=O)N(C)C)N(C)C(=O)N1 (centres undefined) returned T cruzi inh -6, Calb FLC 10, RanGTP-Imp inh -11, Beta cell apopt -6, MLL AF4-AF9 inh -1.7 and Bfl-1 A1 inh 2.4.

Not all compounds are listed; the hit share may differ from the screen's.
